CDC25B CDK2 inh: human CDC25B-CDK2/CyclinA binding inhibition. AID 1259370. HTRF CDC25B-CDK2/CyclinA binding, anti-His/anti-Flag; hits give high values. P30305+P24941. z-score (no concentration beside the values). 0.72% of 94,000 active;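 also: score is relative to mean and SD of negative controls; strong numbers were not always called active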
HIV TAR-Tat: HIV-1 TAR-Tat binding disruption; HIV-1 TAR RNA, Tat peptide displacement FRET; hits give high values; 0.6% of 100,000 active; z-score (no concentration beside the values); AID 1259389;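 also: score is relative to mean and SD of negative controls; some compounds called inactive have numbers as strong as hits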
An asterisk follows results filed as active; . = not tested or not shown.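 The calls were made as follows: active = z-score from 3 up in half or more of its runs; inactive = the rest.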 Rows are unselected. About 0.89% of those tested had a hit in this group.

The line under a structure holds: CDC25B CDK2 inh	HIV TAR-Tat
1: Cc1nc(N2CCOCC2)c2c(C(=O)Nc3ccc(F)c(Cl)c3)c(C)oc2n1
 : .	0.73
2: Cn1c(C(=O)N2CCCC2)c(N2CCCC2=O)c2cc(F)ccc21
 : .	0.5
3: CSc1ccc(Cl)cc1NC(=O)C(F)(F)F
 : 2.4	.
4: CSc1ccccc1NC(=O)CSc1nc2ccccc2[nH]1
 : -4.3	0.91
5: O=C(O)c1nnn(Cc2ccccc2)c1C(=O)O
 : -1.2	-2.7
6: Clc1ccc2c(c1)NC(c1ccncc1)=NC(c1cccs1)=N2
 : -0.68	1.4
7: CCOC(=O)C(C)(Sc1nc(N)c(C#N)c(SC)c1C#N)C(=O)OCC
 : -2.7	.
8: O=C(Cn1ncc2ccsc2c1=O)N1CCN(c2ccccc2F)CC1
 : -2.9	2.5
9: CCC(=O)Nc1nnc(SCc2nc3cc(C)c(C)cc3[nH]c2=O)s1
 : .	-0.38
10: O=C(Nc1ccc(F)cc1F)c1ccc2ncccc2c1
 : -1.2	.
11: CCC1(CC)NC(=S)N(c2ccc(Cl)cc2)N1
 : -1.3	.
12: CCOC(=O)C1CCN(c2nc3ccccc3n3cnnc23)CC1
 : -0.75	0
13: Cc1nc2sc(C(c3ccco3)N3CCCC(C)C3)c(O)n2n1 (stereo unspecified)
 : 0.53	.
14: COc1ccc(-c2[nH]ncc2/C=N/Nc2ncc(C(F)(F)F)cc2Cl)cc1
 : -2.1	.
15: CCn1c(N)c(C(=O)NCc2cccnc2)sc1=S
 : -0.22	-0.05
16: Cc1noc2ncnc(Nc3ccc4c(c3)OCCO4)c12
 : .	2
17: COc1ccccc1C(=O)NC(=S)Nc1ccc(O)c(-c2nc3ccccc3s2)c1
 : -3.2	.
18: O=S(=O)(c1ccc(Cl)cc1)c1nc(-c2ccco2)oc1NCc1ccccc1
 : .	0.88
19: CC1=C(C(=O)OC(C)C)C(c2ccccc2Cl)C2=C(CC(C)(C)CC2=O)N1 (stereo unspecified)
 : -2.4	2.6
20: NC(=O)CSc1n[nH]c2nc3c(c(=O)n12)C1(CCCC1)Cc1ccccc1-3
 : -1.9	1.4
21: COc1cccc(C2CC(=O)NC3=C2C(=O)CC(c2ccc(OC)c(OC)c2)C3)c1 (stereo unspecified)
 : -0.21	0.13
22: CCCOc1ccc(NC(C)=O)cc1
 : -1	.
23: Cn1c(N2CCN(C(=O)c3cc(-c4cccs4)[nH]n3)CC2)cc(=O)n(C)c1=O
 : .	-0.7
24: CCN1CCN(S(=O)(=O)c2cc3[nH]c4c(c3cc2C)C(=O)CC(C)(C)C4)CC1
 : .	-0.88
25: Nc1cc(Cl)c(-n2cccc2)cc1Oc1ccc(Cl)cc1
 : -0.81	.
26: CCN(CC)S(=O)(=O)c1ccc2c(c1)nc(CN1CCN(C(=O)NC3CCCC3)CC1)n2C
 : .	0.47
27: O=C1Nc2ccccc2C1Cc1ccc(OC2CCCC2)cc1 (stereo unspecified)
 : -1.7	0.12
28: O=C1CNCc2[nH]c3ccccc3c2N1c1ccccc1
 : 0.04	.
29: CC(=NCC(C)O)c1cc(Cl)ccc1O (stereo unspecified)
 : -1.7	.
30: CN(CC(=O)N1CCN(C(=O)c2ccco2)CC1)c1nnc(N2CCCCC2=O)s1
 : .	-0.28
31: CC(C)CNC(=O)Cn1nnc2sc3c(c2c1=O)CCCC3
 : -1.3	0.91
32: C=CCOc1ccc(C2C3=C(CC(C)(C)CC3=O)N(C)C3=C2C(=O)CC(C)(C)C3)cc1
 : -1.1	3.2
33: Cc1nc(SCc2nc3ccccc3[nH]2)[nH]c(=O)c1Cc1ccccc1
 : -0.85	0.63
34: NC(=O)CCS(=O)CCC(N)=O
 : 2.3	1.4
35: CC1CN=C(N(Cc2cccnc2)C(=O)Nc2ccc(Cl)c(Cl)c2)S1 (stereo unspecified)
 : -0.9	.
36: CCc1ccc(C2=NNC(=O)CC2)cc1
 : -1.6	-0.17
37: COc1ccc2[nH]cc(C3N4CC5(C)CN3CC(C)(C4)C5=O)c2c1 (stereo unspecified)
 : 1.2	.
38: CCn1c(C)[n+](CC(O)COc2ccc(F)cc2)c2ccccc21 (stereo unspecified)
 : 1.3	-0.81
39: COc1ccc(C2C3=C(CCCC3=O)N=C3c4ccccc4C(=O)C32)cc1OC (stereo unspecified)
 : -1.2	0.81
40: Cc1cc(-c2ccc(=O)[nH]n2)cc(S(=O)(=O)NCc2ccco2)c1C
 : .	2.2
41: CCCCCOC(=O)C1=C(C)Nc2ncnn2C1c1ccncc1 (stereo unspecified)
 : -0.42	-0.58
42: Cc1ccccc1OCc1nc2c3c4c(sc3ncn2n1)C(C)(C)NC(C)(C)C4
 : 0.51	1.9
43: C=CCSc1nc2c(c(=O)[nH]1)C(c1ccc(C)cc1)C(C(=O)OC)=C(C)N2 (stereo unspecified)
 : -0.99	-0.27
44: Cn1c(=O)oc2cc(NS(=O)(=O)c3ccc(C(C)(C)C)cc3)ccc21
 : .	0.36
45: COCCc1nn2c(=O)cc(COC(=O)c3ccc(OC)c(OC)c3)nc2s1
 : .	0.12
46: COc1ccc(S(=O)(=O)N2CCC(C(=O)O)CC2)cc1OC
 : 0.22	.
47: Cn1cccc1-c1cc2n(n1)CCC(=O)N2CC(=O)NCCCN1CCOCC1
 : .	-0.04
48: Nc1ccn(C2O[C@H](CO)[C@@H](O)[C@@H]2O)c(=O)n1 (stereo partly specified)
 : .	0.23
49: CC(=O)Nc1c(-n2cnnc2)n[nH]c1C
 : -0.5	0.92
50: CCCCNC(=O)C1CCCN(c2nnc(-n3cccc3)s2)C1 (stereo unspecified)
 : .	1.4
51: Cn1c(C2=C(O)CN(c3ccc(C(N)=O)cc3)C2=N)nc2ccccc21
 : -2	0.01
52: c1csc(-c2cc(N3CCOCC3)c3ccccc3n2)c1
 : 0.79	.
53: CCOC(=O)N1CCC(NC(=O)C2CCCN(S(C)(=O)=O)C2)CC1 (stereo unspecified)
 : .	1.9
54: CCCSCCCNC(=O)C1Cc2ccccc2N1C(C)=O (stereo unspecified)
 : .	1.6
55: CC(C)OC(=O)COc1ccc2c(=O)c(Oc3ccccc3Br)coc2c1
 : -1.9	1.1
56: CCOC(=O)C1CCCN(C(=O)C2CCN(S(=O)(=O)N3CCOCC3)CC2)C1 (stereo unspecified)
 : .	2.5
57: O=c1c2ccc(Cl)cc2[nH]c(=S)n1CCCN1CCOCC1
 : -0.24	.
58: CC1=C(C(=O)OCCOc2ccccc2)C(c2coc3ccccc3c2=O)C2=C(CC(C)(C)CC2=O)N1 (stereo unspecified)
 : 0.42	0.73
59: O=S(=O)(Nc1cccc(F)c1)c1ccc(-c2cnc(C3CC3)o2)cc1
 : .	0.51
60: CCCS(=O)(=O)c1ncc(Cl)c(C(=O)Oc2ccc(CC)cc2)n1
 : -1.8	-0.21

Additional compounds:
#	smiles	CDC25B CDK2 inh	HIV TAR-Tat
61	Cn1c(=O)n(CC(=O)O)c(=O)c2c1nc1n2CCCN1c1cccc(Cl)c1	-2.3	-0.11
62	COc1ccc(-n2c(C)cc(CNC(=O)Nc3cc(Cl)c(OC)cc3OC)c2C)cc1	.	-4.4
63	Cn1cccc1Cc1nnc(SCC(=O)NCc2ccco2)n1C	1	-0.97
64	COC(=O)Cn1cc2c(n1)-c1c(oc(C(=O)N3CCCC3)c1C)CC2	4.4	0.58
65	Cc1ccc(CNc2nc3nc(C)c(Cl)c(C)n3n2)cc1	-3	3.3
66	Fc1ccccc1CSc1nc2ccc(Cl)cc2[nH]1	-2.9	3.1
67	CCOCCCNc1ncnc2onc(-c3cc(F)cc(F)c3)c12	.	0.53
68	Cc1ccc(-c2c3c(=O)n(C)c(=O)n(C)c3cn2-c2ccc(N)cc2)cc1	-0.76	1.4
69	Cc1cc(NC(=O)c2c3c(nc4ccccc24)C(=O)N(C2CCCCC2)C3)no1	.	-0.08
70	Cn1c(=O)oc2cc(S(=O)(=O)NCC(=O)O)ccc21	-1.5	-7.5
71	Cc1ccc(C2CC(C(F)F)n3ncc(C(=O)Nc4cnn(Cc5ccccc5C)c4)c3N2)cc1 (stereo unspecified)	-2	-0.44
72	CCC(=O)N1CCc2cc(S(=O)(=O)CCC(=O)NC3CCCCC3)ccc21	-2.1	.
73	CCn1nc2n(c1=O)-c1cc(Cl)ccc1OC2	-0.8	0.56
74	Cn1ncc2c(Nc3ccc(Cl)cc3)nc(NC3CCCC3)nc21	.	-0.39
75	CCN1CCN(C(=O)C2CCCN(c3ncnc4onc(C)c34)C2)CC1 (stereo unspecified)	.	1.4
76	CCOC(=O)C1CCCN(c2c(N3CCC(C(N)=O)CC3)c(=O)c2=O)C1 (stereo unspecified)	0.76	0.63
77	CC(C)(C)c1cc(NC(=O)Nc2ccccc2)no1	0.27	.
78	Cc1ncc(-c2ccc(C)c(S(=O)(=O)NCc3ccc4c(c3)OCO4)c2)o1	.	0.58
79	C[C@]1(Cn2ccnn2)[C@H](C(=O)O)N2C(=O)C[C@H]2S1(=O)=O	.	-0.37
80	CC1CCC(NC(=O)C2CCN(S(=O)(=O)c3ccc4[nH]c(=O)ccc4c3)CC2)CC1 (stereo unspecified)	.	2.8

Entries 78–80 of the list above:
#	smiles	CDC25B CDK2 inh	HIV TAR-Tat
78	Cc1ncc(-c2ccc(C)c(S(=O)(=O)NCc3ccc4c(c3)OCO4)c2)o1	.	0.58
79	C[C@]1(Cn2ccnn2)[C@H](C(=O)O)N2C(=O)C[C@H]2S1(=O)=O	.	-0.37
80	CC1CCC(NC(=O)C2CCN(S(=O)(=O)c3ccc4[nH]c(=O)ccc4c3)CC2)CC1 (stereo unspecified)	.	2.8

Later entries
#	smiles	CDC25B CDK2 inh	HIV TAR-Tat
81	Cc1[nH]nc(-c2ccc(S(=O)(=O)N3CCN(c4ccc(N5CCOCC5)nn4)CC3)s2)c1C	.	0.2
82	O[C@H]1C=C2CCN3Cc4cc5c(cc4C(C23)[C@@H]1O)OCO5 (stereo partly specified)	.	20*
83	O=C(Cc1csc(-c2ccccc2)n1)Nc1nc2c(s1)CCCC2	-1	-0.21
84	COc1ccc(O)c(C2=Nc3ccccc3N=C(C(F)(F)F)C2)c1	-1.4	0.88
85	Cn1c2c(c(=O)[nH]c1=O)C(c1ccc([N+](=O)[O-])o1)C1=C(N2)c2ccccc2C1=O (stereo unspecified)	0.36	3.6*
86	Cc1cc(C)c2c(c1)OCN(Cc1ccc3c(c1)OCO3)C2	-1.6	.
87	COc1ccc(OC)c(C2CC(=O)NC3=C2C(=O)CC(c2ccc(F)cc2)C3)c1 (stereo unspecified)	0.45	1
88	CC(=C/C(=O)O)/C(=C\c1cccnc1)C(=O)O	-1.3	.
89	CCOC(=O)c1ccc2c(c1)NC(=NC1CCCCC1)C1(CCCCC1)N2	.	-0.9
90	COc1cccc(OC)c1C(=O)Nc1ccccc1F	-2	.
91	c1ccc2c(c1)CCC[C@H]2Nc1nc2ccccc2[nH]1	-0.57	.
92	CCSc1nnc2c(n1)OC(c1ccc(OC)c3ccccc13)Nc1ccc(Br)cc1-2 (stereo unspecified)	1.9	.
93	Cc1cc(=O)n2nc(N3CCCC(C(=O)N4CCC(C)CC4)C3)sc2n1 (stereo unspecified)	0.45	0.99
94	COc1cc2c(cc1NC(=O)c1ccco1)n(C)c(=O)n2C	-0.81	-2
95	O=C(c1cccc2ccccc12)N1CCN(C2=NS(=O)(=O)c3ccccc32)CC1	0.7	.
96	COC(=O)c1cc2occc2n1Cc1nc(-c2cccc(Br)c2)oc1C	-1.5	0.19
97	O=c1c2ccccc2n2c(-c3ccc(F)cc3)nnc2n1Cc1ccc(F)cc1	-1	-0.07
98	COC(=O)Cn1c(=O)c2cccn2c2cccnc21	-0.28	-1.4
99	c1ccc(CSc2nc3ccccc3n2Cc2ccccn2)cc1	0.82	-0.16
100	c1ccc(-c2nc(N3CCCCC3)nc3ccccc23)cc1	1.8	-0.25
101	COc1cccc(OC(=O)CSc2nnc(-c3cccs3)o2)c1	-1.7	-0.25
102	Cn1c(=O)c2c(nc(N3CCOCC3)n2CCSc2ncccn2)n(C)c1=O	-0.42	.
103	Fc1cccc(C2NCCN=C2NC2CCCCC2)c1 (stereo unspecified)	.	-12
104	O=C1c2oc3ccccc3c(=O)c2C(c2cccc(O)c2)N1c1ccccn1 (stereo unspecified)	-0.25	0.69
105	CCc1nnc(SCC(=O)Nc2ccc(C)cc2C)c2cc3oc(C)cc3n12	.	1
106	Cc1cccc(C)c1OCCn1cncn1	-2.3	0.71
107	NC(=O)CCCCC1CCSS1 (stereo unspecified)	-2.2	.
108	CCOC(=O)C(C)NC(=O)CCc1c(C)nc2c(c(C)nn2C(C)(C)C)c1C (stereo unspecified)	-2	1.2
109	COc1ccc(C)cc1Nc1nc(C)cc(C)c1C#N	-1.9	0.03
110	O=C(NCCc1ccccc1)N1Cc2cccn2-c2ccccc21	.	0.96

Some of the entries above, reformatted.
107. NC(=O)CCCCC1CCSS1 (stereo unspecified)
  CDC25B CDK2 inh: -2.2; HIV TAR-Tat: .

108. CCOC(=O)C(C)NC(=O)CCc1c(C)nc2c(c(C)nn2C(C)(C)C)c1C (stereo unspecified)
  CDC25B CDK2 inh: -2; HIV TAR-Tat: 1.2

109. COc1ccc(C)cc1Nc1nc(C)cc(C)c1C#N
  CDC25B CDK2 inh: -1.9; HIV TAR-Tat: 0.03

110. O=C(NCCc1ccccc1)N1Cc2cccn2-c2ccccc21
  CDC25B CDK2 inh: .; HIV TAR-Tat: 0.96

More records:
#	smiles	CDC25B CDK2 inh	HIV TAR-Tat
111	CC(C)c1ccc(C(=O)CSc2n[nH]c(-c3ccco3)n2)cc1	-0.04	-0.06
112	Cc1cccc(N2C(=O)CN(Cc3sccc3C)C2=S)c1	-1.4	.
113	C=C1CCC2C(CC2(C)C)C(=O)CCC1O (stereo unspecified)	.	2.1
114	CC1CCC(NC(=O)Cn2c(=O)c3cccn3c3cccnc32)CC1 (stereo unspecified)	.	-1
115	O=C(CSc1nc(-c2ccco2)nc2cc(=O)[nH]n12)Nc1ccc(F)c(Cl)c1	.	0.46
116	CCOC(=O)c1noc(C)c1-c1csc(CS(=O)(=O)c2ccc(Cl)cc2)n1	-0.43	.
117	CCOC(=O)/C(C#N)=C/N1CCCC1c1cccs1 (stereo unspecified)	-1.1	.

Screening data (PubChem BioAssay)
